UUG fidelity: modulators of yeast start codon fidelity, primary screen, whole organism, S. cerevisiae, single point, plate reader. actives 0.13% (n = 350,000). activity score, % at 18.7 µM. S. cerevisiae UUG-firefly luciferase reporter, luminescence/redox ratio. AID 602363, 2012;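 active = replicate mean at a twofold rise or more, about +100% in these data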;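 also: firefly luciferase made from a UUG start codon reports start codon fidelity; reporter light over untreated wells divided by growth signal over untreated wells; some hits fall short of that in this replicate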
HIV Env fusion: inhibitors of HIV-1 Env-driven cell-cell fusion, primary screen, HeLa-JRFL effector, CEM21 target cells, luciferase; actives 1.1% (n = 360,000); inhibition, % at 12.3 µM; AID 651610, 2012;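 active = mean replicate inhibition score of at least 50 and every replicate individually at or above 50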;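 also: 0% = plate neutral controls and 100% = maraviroc near 300 nM; one replicate is shown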
Starred values were filed as active, the others as inactive; [ ] = dose if it differs, or a comment. Not all compounds are listed; the hit share may differ from the screen's.

1	Cc1ccc(S(=O)(=O)Nc2ccc3c(c2)CC(=O)N([C@H](C)CO)C[C@@H](C)[C@H](CN(C)C(=O)Nc2cccc4ccccc24)O3)cc1
2	O=C(N[C@H]1CC[C@@H](CCn2cc(-c3ccc(F)cc3)nn2)O[C@@H]1CO)c1cnccn1
3	C[C@@H](NC(=O)C[C@H]1C[C@H]2c3cc(NC(=O)CN(C)C)ccc3O[C@H]2[C@@H](CO)O1)c1ccccc1
4	CO[C@@H]1CN(C)C(=O)c2cc(NC(=O)C3CC3)ccc2OC[C@@H](C)N(C(=O)c2ccncc2)C[C@H]1C
5	COc1ccc(S(=O)(=O)Nc2ccc3c(c2)C(=O)N([C@H](C)CO)C[C@@H](C)[C@H](CN(C)Cc2ccc(C(=O)Nc4ccccc4N)cc2)O3)cc1
6	CCC(=O)N(C)C[C@H]1Oc2ncc(C#Cc3ccc(OC)cc3)cc2C(=O)N([C@@H](C)CO)C[C@@H]1C
7	N#C[C@H]1[C@@H](c2ccc(C3=CCCC3)cc2)[C@@H](CO)N1C(=O)NC1CCCC1
8	O=C(Nc1ccc(F)cc1)N[C@H]1CC[C@@H](CCNS(=O)(=O)c2ccccc2F)O[C@@H]1CO

compound no. | 1 | 2 | 3 | 4 | 5 | 6 | 7 | 8
UUG fidelity | 8 | -8 | 0 | 0 | 0 | -6 | 13 | -8
HIV Env fusion | 11[16.7 µM] | 3[16.7 µM] | -6[16.7 µM] | -20[16.7 µM] | 9[16.7 µM] | -9[16.7 µM] | -16[16.7 µM] | -2[16.7 µM]

9	CCC(=O)N(C)C[C@H]1Oc2ncc(/C=C/c3ccccc3)cc2C(=O)N([C@H](C)CO)C[C@@H]1C
10	O=C(CC1CC1)Nc1ccc2c(c1)[C@H]1C[C@H](CC(=O)N3CCOCC3)O[C@@H](CO)[C@H]1O2
11	Cc1ccc(S(=O)(=O)N(C)C[C@@H]2OCCCC[C@@H](C)Oc3ccc(NC(=O)Nc4ccc5c(c4)OCO5)cc3C(=O)N([C@@H](C)CO)C[C@H]2C)cc1
12	CCC(=O)Nc1ccc2c(c1)C(=O)N(C)[C@@H]1CC[C@H](CC(=O)NCc3ccc(OC)cc3)O[C@@H]1CO2
13	Cc1ccccc1-c1cnc2c(c1)C(=O)N([C@H](C)CO)C[C@H](C)[C@@H](CN(C)Cc1ccncc1)O2
14	Cc1noc(C)c1S(=O)(=O)Nc1cccc2c1O[C@H](CN(C)Cc1ccc(C(=O)O)cc1)[C@H](C)CN([C@@H](C)CO)C2=O
15	N#C[C@H]1[C@H](c2ccc(C#Cc3ccc(F)cc3)cc2)[C@H](CO)N1C(=O)C1CC1
16	COCc1cn(CC[C@@H]2CC[C@@H](NC(=O)c3ccncc3)[C@@H](CO)O2)nn1

compound no. | 9 | 10 | 11 | 12 | 13 | 14 | 15 | 16
UUG fidelity | 22 | -6 | -4 | 16 | -8 | 3 | 15 | -3
HIV Env fusion | -13[16.7 µM] | 0[16.7 µM] | 10[16.7 µM] | -3[16.7 µM] | 13[16.7 µM] | 34[16.7 µM] | -2[16.7 µM] | 15[16.7 µM]

Structures above that have a cyano group (two):
7	N#C[C@H]1[C@@H](c2ccc(C3=CCCC3)cc2)[C@@H](CO)N1C(=O)NC1CCCC1
15	N#C[C@H]1[C@H](c2ccc(C#Cc3ccc(F)cc3)cc2)[C@H](CO)N1C(=O)C1CC1

compound no. | 7 | 15
UUG fidelity | 13 | 15
HIV Env fusion | -16[16.7 µM] | -2[16.7 µM]

More structures:
17	CN(C)CC(=O)N[C@H]1C=C[C@@H](CC(=O)NCCN2CCCCC2)O[C@@H]1CO
18	Cc1ccc(S(=O)(=O)Nc2ccc3c(c2)CC(=O)N([C@H](C)CO)C[C@@H](C)[C@@H](CN(C)C(=O)Nc2ccccc2)O3)cc1
19	O=C(C[C@H]1C=C[C@@H](NC(=O)c2ccncc2)[C@H](CO)O1)NCC1CCCCC1
20	COc1cccc(NC(=O)N(C)C[C@@H]2Oc3cc(C#Cc4ccc(F)cc4)ccc3S(=O)(=O)N([C@@H](C)CO)C[C@H]2C)c1
21	C[C@@H]1CCCCO[C@@H](CN(C)C(=O)Nc2ccc3c(c2)OCO3)[C@@H](C)CN([C@H](C)CO)C(=O)c2cc(NC(=O)c3ccncc3)ccc2O1
22	O=C(C[C@@H]1C[C@@H]2c3cc(NC(=O)Cc4ccncc4)ccc3O[C@@H]2[C@@H](CO)O1)NCc1ccccc1
23	C[C@H](CO)N1C[C@H](C)[C@@H](CN(C)S(=O)(=O)c2cn(C)cn2)Oc2ccc(NC(=O)C3CCCCC3)cc2CC1=O
24	Cc1ccc(S(=O)(=O)Nc2ccc3c(c2)C(=O)N([C@@H](C)CO)C[C@H](C)[C@@H](CN(C)S(=O)(=O)c2cn(C)cn2)OCCCC[C@H](C)O3)cc1

compound no. | 17 | 18 | 19 | 20 | 21 | 22 | 23 | 24
UUG fidelity | -8 | 14 | -3 | -8 | -2 | -9 | -13 | 5
HIV Env fusion | -6[16.7 µM] | -11[16.7 µM] | 15[16.7 µM] | -3[16.7 µM] | -8[16.7 µM] | 17[16.7 µM] | -13[16.7 µM] | -23[16.7 µM]

25	C[C@H](CO)N1C[C@H](C)[C@H](CN(C)C)OCCCC[C@H](C)Oc2ccc(NC(=O)Cc3ccccc3)cc2C1=O
26	C/C=C/c1ccc2c(c1)O[C@@H](CN(C)Cc1ccccc1F)[C@@H](C)CN([C@@H](C)CO)S2(=O)=O
27	C[C@@H]1CN([C@@H](C)CO)C(=O)c2cc(C#C[C@@H](C)O)cnc2O[C@H]1CN(C)C(=O)c1ccncc1
28	Cc1ccc(S(=O)(=O)Nc2ccc3c(c2)C(=O)N([C@@H](C)CO)C[C@H](C)[C@H](CN(C)S(=O)(=O)c2cn(C)cn2)OCCCC[C@@H](C)O3)cc1
29	C[C@@H]1CN([C@H](C)CO)S(=O)(=O)c2ccc(C#Cc3ccccc3F)cc2O[C@@H]1CN(C)C(=O)Cc1cccnc1
30	Cc1ccccc1S(=O)(=O)N1C[C@H](O)COC[C@H]2O[C@H](CC(=O)N3CCN(C)CC3)CC[C@@H]21
31	Cc1noc(C)c1NC(=O)N[C@H]1C=C[C@H](CC(=O)N2CCN(C)CC2)O[C@@H]1CO
32	C[C@@H]1CN([C@@H](C)CO)C(=O)c2cc(NS(=O)(=O)c3ccc(Cl)cc3)ccc2O[C@H]1CN(C)Cc1ccc(C(F)(F)F)cc1

compound no. | 25 | 26 | 27 | 28 | 29 | 30 | 31 | 32
UUG fidelity | 26 | -15 | -5 | 12 | -10 | -8 | -8 | -1
HIV Env fusion | -21[16.7 µM] | -1[16.7 µM] | -14[16.7 µM] | -20[16.7 µM] | 42[16.7 µM] | -4[16.7 µM] | 2[16.7 µM] | -40[16.7 µM]

33	CCCC#Cc1cnc2c(c1)C(=O)N([C@H](C)CO)C[C@H](C)[C@@H](CN(C)Cc1ccc(F)cc1)O2
34	CC(C)CC#Cc1ccc2c(c1)O[C@@H](CN(C)Cc1cncnc1)[C@H](C)CN([C@H](C)CO)S2(=O)=O
35	O=C(CN1CCOCC1)NCC[C@H]1CC[C@H](NC(=O)Nc2ccc(Cl)cc2)[C@H](CO)O1
36	C[C@@H]1CN([C@H](C)CO)C(=O)c2cc(NS(=O)(=O)c3ccccc3)ccc2O[C@H]1CN(C)Cc1ccc(C(=O)Nc2ccccc2N)cc1
37	Cc1noc(C)c1S(=O)(=O)Nc1ccc2c(c1)C(=O)N([C@@H](C)CO)C[C@@H](C)[C@@H](CN(C)Cc1ccc(C(F)(F)F)cc1)O2
38	C[C@H](NC(=O)C[C@H]1C=C[C@@H](NC(=O)C2CCC2)[C@H](CO)O1)c1ccccc1
39	C/C=C/c1ccc2c(c1)O[C@H](CN(C)C(=O)Cc1ccncc1)[C@H](C)CN([C@H](C)CO)S2(=O)=O
40	C[C@@H]1CN([C@@H](C)CO)C(=O)c2cc(N(C)C)ccc2O[C@H]1CN(C)C(=O)Nc1ccc2c(c1)OCO2

compound no. | 33 | 34 | 35 | 36 | 37 | 38 | 39 | 40
UUG fidelity | -10 | 12 | 11 | 3 | 3 | -10 | -5 | -11
HIV Env fusion | 6[16.7 µM] | 35[16.7 µM] | -6[16.7 µM] | 1[16.7 µM] | -14[16.7 µM] | 1[16.7 µM] | 15[16.7 µM] | -3[16.7 µM]

41	CN(C)C(=O)C[C@H]1C=C[C@H](NC(=O)C2CCC2)[C@H](CO)O1
42	C[C@@H]1CN([C@@H](C)CO)C(=O)c2cc(C#C[C@@H](C)O)cnc2O[C@H]1CN(C)C(=O)Cc1ccccn1
43	C[C@@H]1CCCCO[C@H](CN(C)C(=O)C2CCCCC2)[C@@H](C)CN([C@@H](C)CO)C(=O)c2cc(NC(=O)CCCN(C)C)ccc2O1
44	C/C=C/c1cnc2c(c1)C(=O)N([C@H](C)CO)C[C@@H](C)[C@@H](CN(C)C(=O)NC1CCCCC1)O2
45	COc1ccc(NC(=O)N(C)C[C@@H]2Oc3ccc(NC(=O)NC4CCCCC4)cc3CC(=O)N([C@H](C)CO)C[C@H]2C)cc1
46	COCC(=O)Nc1ccc2c(c1)C(=O)N(C)[C@@H]1CC[C@@H](CC(=O)Nc3ccccc3)O[C@@H]1CO2
47	O=C(Nc1ccc(F)cc1)N[C@@H]1CC[C@H](CCNS(=O)(=O)c2cccc(Cl)c2)O[C@H]1CO
48	O=C(C[C@H]1CC[C@@H]2[C@H](COC[C@H](O)CN2Cc2ccc3c(c2)OCO3)O1)N1CCCCC1

compound no. | 41 | 42 | 43 | 44 | 45 | 46 | 47 | 48
UUG fidelity | -4 | -11 | 8 | 5 | 10 | -6 | 35 | -8
HIV Env fusion | -64[16.7 µM] | -5[16.7 µM] | 12[16.7 µM] | 6[16.7 µM] | 0[16.7 µM] | 9[16.7 µM] | -5[16.7 µM] | 0[16.7 µM]

49	COc1ccc(S(=O)(=O)N[C@H]2CC[C@H](CCn3cc(-c4cccc(F)c4)nn3)O[C@H]2CO)cc1
50	C[C@@H]1CN([C@H](C)CO)C(=O)c2cccc(NS(=O)(=O)c3ccc(F)cc3)c2O[C@@H]1CN(C)C(=O)Nc1ccc2c(c1)OCO2
51	C[C@H](CO)N1C[C@H](C)[C@H](CN(C)C(=O)Nc2ccccc2)OCCCC[C@H](C)Oc2ccc(NS(C)(=O)=O)cc2C1=O
52	O=C(C[C@H]1C/C=C\CCC(=O)O[C@@H](c2ccccc2)CNC1=O)NCCO
53	CN1CCN(C(=O)C[C@@H]2C[C@H]3c4cc(NC(=O)Nc5ccc(C(F)(F)F)cc5)ccc4O[C@H]3[C@@H](CO)O2)CC1
54	CCNC(=O)C[C@H]1CC[C@H]2[C@@H](COc3ccc(NC(=O)Cc4cccs4)cc3C(=O)N2C)O1
55	Cc1ccc(S(=O)(=O)N[C@H]2CC[C@H](CCNC(=O)Nc3ccc(Cl)cc3)O[C@H]2CO)cc1
56	C[C@H]1CCCCO[C@@H](CN(C)C(=O)Nc2ccc(C(F)(F)F)cc2)[C@@H](C)CN([C@@H](C)CO)C(=O)c2cc(NC(=O)c3ccncc3)ccc2O1

compound no. | 49 | 50 | 51 | 52 | 53 | 54 | 55 | 56
UUG fidelity | 9 | -4 | 8 | -13 | 2 | -9 | 13 | -2
HIV Env fusion | -2[16.7 µM] | -11[16.7 µM] | 1[16.7 µM] | -22 | 4[16.7 µM] | 0[16.7 µM] | -68[16.7 µM] | -16[16.7 µM]

An excerpt from above in order of the UUG fidelity value, descending:
55	Cc1ccc(S(=O)(=O)N[C@H]2CC[C@H](CCNC(=O)Nc3ccc(Cl)cc3)O[C@H]2CO)cc1
49	COc1ccc(S(=O)(=O)N[C@H]2CC[C@H](CCn3cc(-c4cccc(F)c4)nn3)O[C@H]2CO)cc1
50	C[C@@H]1CN([C@H](C)CO)C(=O)c2cccc(NS(=O)(=O)c3ccc(F)cc3)c2O[C@@H]1CN(C)C(=O)Nc1ccc2c(c1)OCO2

compound no. | 55 | 49 | 50
UUG fidelity | 13 | 9 | -4
HIV Env fusion | -68[16.7 µM] | -2[16.7 µM] | -11[16.7 µM]

The results go on.
57	C[C@@H]1CCCCO[C@H](CN(C)S(=O)(=O)c2cccs2)[C@H](C)CN([C@@H](C)CO)C(=O)c2cc(NC(=O)Nc3cccc4ccccc34)ccc2O1
58	O=C(O)C[C@H]1C[C@@H]2c3cc(NC(=O)C4CCC4)ccc3O[C@@H]2[C@@H](CO)O1
59	C[C@@H]1CN([C@H](C)CO)C(=O)c2cc(C#Cc3cccnc3)cnc2O[C@H]1CN(C)Cc1cccnc1
60	CO[C@H]1CN(C)C(=O)c2cc(NC(=O)c3ccc(F)cc3)ccc2OC[C@H](C)N(C)C[C@H]1C
61	CCNC(=O)Nc1ccc2c(c1)C(=O)N(C)[C@@H]1CC[C@H](CC(=O)NCC3CCCCC3)O[C@H]1CO2
62	C[C@@H]1CCCCO[C@H](CN(C)S(=O)(=O)c2cccs2)[C@H](C)CN([C@H](C)CO)C(=O)c2cc(N(C)C)ccc2O1
63	CCS(=O)(=O)NCC[C@H]1CC[C@@H](NC(=O)C2CCC2)[C@H](CO)O1
64	CC(C)NC(=O)Nc1ccc2c(c1)C(=O)N([C@H](C)CO)C[C@H](C)[C@@H](CN(C)C(=O)C1CCCCC1)OCCCC[C@H](C)O2
65	O=C(NCC[C@@H]1CC[C@@H](NS(=O)(=O)c2ccccc2)[C@H](CO)O1)c1cc(Cl)cc(Cl)c1
66	C[C@@H]1CCCCO[C@H](CN(C)S(=O)(=O)c2ccc(F)cc2)[C@@H](C)CN([C@@H](C)CO)C(=O)c2cc(NC(=O)Nc3ccc4c(c3)OCO4)ccc2O1
67	C[C@H](CO)N1C[C@H](C)[C@@H](CN(C)C)OCCCC[C@H](C)Oc2ccc(NC(=O)c3ccccc3)cc2C1=O

compound no. | 57 | 58 | 59 | 60 | 61 | 62 | 63 | 64 | 65 | 66 | 67
UUG fidelity | -13 | 9 | -1 | 4 | -6 | 22 | 3 | -9 | 14 | 1 | 26
HIV Env fusion | -8[16.7 µM] | 0[16.7 µM] | -5[16.7 µM] | 15[16.7 µM] | -12[16.7 µM] | -37[16.7 µM] | 0[16.7 µM] | -85[16.7 µM] | 15[16.7 µM] | -4[16.7 µM] | -13[16.7 µM]
